TRPML1 ag: agonists of human TRPML1 channel; actives 0.12% (n = 410,000); activation, % (test concentration not listed); TRPML1-expressing cells, Ca2+ dye fluorescence, FDSS; host cell line not named in the record; reference of the full effect not given here; in the data active = activation above about 50%; inconclusive = about 30% to 50%; inactive = below about 30%; further: 0% is about no effect; the text of the record puts the active cut at 80%
Target sequence (Q9GZU1 whole entry, looked up): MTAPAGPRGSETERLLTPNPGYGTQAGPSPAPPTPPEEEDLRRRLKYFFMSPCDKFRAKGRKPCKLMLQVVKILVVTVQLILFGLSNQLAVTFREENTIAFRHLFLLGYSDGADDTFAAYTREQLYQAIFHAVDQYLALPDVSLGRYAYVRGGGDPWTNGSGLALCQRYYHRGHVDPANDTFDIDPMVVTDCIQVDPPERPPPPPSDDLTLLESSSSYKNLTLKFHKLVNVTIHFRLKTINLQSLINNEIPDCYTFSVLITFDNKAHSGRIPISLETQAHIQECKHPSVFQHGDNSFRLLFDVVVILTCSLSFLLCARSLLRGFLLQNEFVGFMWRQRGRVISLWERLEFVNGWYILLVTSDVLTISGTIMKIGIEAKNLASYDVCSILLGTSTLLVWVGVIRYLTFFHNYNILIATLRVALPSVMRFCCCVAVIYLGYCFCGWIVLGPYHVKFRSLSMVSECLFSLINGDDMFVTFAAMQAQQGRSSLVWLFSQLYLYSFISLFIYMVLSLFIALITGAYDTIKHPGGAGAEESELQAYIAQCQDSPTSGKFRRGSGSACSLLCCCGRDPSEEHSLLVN
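In this qHTS format, compounds were pin-transferred onto Ca8-dye-loaded TRPML1-DL cells induced with Tet overnight, and intracellular Ca2+ fluorescence was recorded kinetically for 110 s after a 10 s baseline. A subsequent 4uM final 54-4 (EC80) addition followed by a second 110 s read served as the antagonist phase.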
D2 potentiator: human D2 receptor positive allosteric modulation; P14416; DiscoveRx D2 beta-arrestin cells, luminescence, 90 min; 100% = 57 uM dopamine signal; potentiation, % (concentration not given with the values); actives 0.23% (n = 360,000); AID 624464; active = potentiation of 50% or more; inconclusive = 30% to 50%; inactive = 30% or less;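 further: compound concentration not given in the record; tested on top of an EC20 dose of dopamine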
Target sequence (P14416 whole entry, looked up): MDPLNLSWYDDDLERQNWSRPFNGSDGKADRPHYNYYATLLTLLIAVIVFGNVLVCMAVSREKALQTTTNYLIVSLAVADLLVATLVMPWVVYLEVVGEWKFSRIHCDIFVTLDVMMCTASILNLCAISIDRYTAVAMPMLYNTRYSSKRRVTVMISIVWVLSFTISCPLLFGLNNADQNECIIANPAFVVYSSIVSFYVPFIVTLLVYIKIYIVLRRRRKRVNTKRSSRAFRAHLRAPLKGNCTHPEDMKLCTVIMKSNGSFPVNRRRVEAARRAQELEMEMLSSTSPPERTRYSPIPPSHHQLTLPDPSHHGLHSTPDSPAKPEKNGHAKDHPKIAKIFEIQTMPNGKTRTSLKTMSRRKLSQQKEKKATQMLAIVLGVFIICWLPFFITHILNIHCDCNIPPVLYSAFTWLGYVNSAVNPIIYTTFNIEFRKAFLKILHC
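PathHunter D2 cells, attached overnight at 37 deg C, received compound in DMSO plus dopamine at EC20 (50 nM final) for 90 min at 37 deg C. Beta-arrestin recruitment was read as luminescence after 1 h with detection reagent at ambient temperature.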
D2 agonist: activates the human D2 dopamine receptor. activation, % (no concentration beside the values). actives 0.084% (n = 360,000). P14416. DiscoveRx PathHunter D2 beta-arrestin, luminescence, 90 min; 100% = 57 uM dopamine signal; in the data active = activation above about 40%; inconclusive = about 15% to 40%; inactive = below about 15%; further: compound concentration not given in the record; the text of the record calls up to 30% inactive
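DiscoveRx PathHunter D2 beta-arrestin cells (2,100/well) attached overnight, then compound-stimulated 90 min at 37 C in HBSS/10 mM HEPES/0.1% Tween-20 buffer; beta-galactosidase complementation read by luminescence after 1 h at ambient temperature. Dopamine 57 uM final (EC100) as control.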
PINK1 modulator: modulators of PINK1 expression; PINK1 immunofluorescence, high-content cytometry, 24 h; actives 0.2% (n = 410,000); Potency, µM (top dose mostly 76.6 µM), for the others: top-dose activation (PINK1 increase), actives largely listed as activators; active = well fitted activation curve with a large enough effect; inconclusive = small, poorly fitted or top-dose-only effect; inactive = flat fitted curve, though single readings scatter; cell line not stated here;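 further: potency means the concentration at half of the fitted maximal effect; % of control where 0% means no effect; nearly all actives have a fitted effect of over 65% in size; a mitochondrial uncoupler was the plate control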
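Stable cell line treated 24 h with compounds at 5 concentrations (CCCP controls), then fixed and immunostained for PINK1 plus nuclear and cell stains; PINK1 immunofluorescence quantified by laser-scanning microplate cytometry.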
CtBP-E1A blk: blocks the CtBP interaction with E1A; activity change, % (concentration not given with the values); AlphaScreen GST-E1A/His-CtBP binding, 1536-well; hits give low values; control for the full effect not named in the record; AID 651724; actives 0.49% (n = 340,000); in the data active means activity change below about -65%; inconclusive means about -30% to -65%; inactive means above about -30%; further: on the % scale 0 is the no-effect control and ±100 the full control effect
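In 5 uL wells, 23 nL compound meets equimolar GST-E1A and His-CtBP (5X stock 125 nM each) for 2 h, 37 °C. Beads (5X, 50 ug/mL) then 1 h, 37 °C, dark.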
Six1-Eya2 inh: inhibitors of human Six1/Eya2 interaction; Q15475+O00167; AlphaScreen GST-Six1/His-Eya2 binding, biochemical; hits give low values; control for the full effect not named in the record; activity change, % (concentration not given with the values); actives 0.56% (n = 360,000); in the data active = activity change below about -65%; inconclusive = about -30% to -65%; inactive = above about -30%; further: on the % scale 0 is the no-effect control and ±100 the full control effect
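AlphaScreen luminescence read after one hour at 37 °C in darkness. Pin-transferred compounds met GST-Six1 and His-Eya2 protein (5X stock 250 nM/500 nM) plus glutathione donor and Ni-chelate acceptor beads (5X, 50 ug/mL).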
* = called active by the depositor; ? = inconclusive; . = no result given; [ ] = remark or other dose.

entry	SMILES	TRPML1 ag	D2 potentiator	D2 agonist	PINK1 modulator	CtBP-E1A blk	Six1-Eya2 inh
1	CCOc1ccc(C(=O)Nc2cc(OC)ccc2OC)cc1	0.8	-19.4	-0.9	4.2%[38.3 µM]	-9.2	-6.3
2	CC(C)CC(=O)NC(C)C(c1cccs1)N1CCOCC1 (configuration not stated)	0.5	-2.8	-2.0	4.8%	.	1.0
3	O=C(CN1c2cccc3cccc(c23)S1(=O)=O)Nc1ccccc1	1.1	-9.4	-0.2	3.0%	-7.2	-1.0
4	O=C(Nc1ccc(Cl)cc1)c1ccc(S(=O)(=O)N2CCOCC2)cc1	-0.3	-8.1	-0.8	-2.2%	6.9	-6.9
5	c1ccc2c(N3CCOCC3)c3c(nc2c1)CCC3	0.7	0.3	-1.3	0.4%	-1.7	-5.8
6	COc1cccc(OCc2cc(C(=O)N(C)C3CCOCC3)no2)c1	0.0	14.3	2.6	-0.1%	2.2	2.0
7	Cc1noc(C)c1C(=O)N1CCC(C(=O)c2ccc(F)cc2F)CC1	-0.2	-4.4	-6.0	-1.0%	3.9	-1.5
8	COc1ccc(-n2sc3c(c2=S)-c2cc(OC)ccc2NC3(C)C)cc1	-0.6	-13.5	-2.3	2.0%	-2.4	-17.3
9	OC1CCC(Nc2ccn3nc(-c4cccc(Cl)c4)cc3n2)CC1 (configuration not stated)	0.0	9.6	5.7	5.0%	-2.9	-4.1
10	Cc1c(OCC(=O)N2CCC(C(=O)O)CC2)ccc2c3c(c(=O)oc12)CCC3	.	-24.2	-6.9	-0.4%	-14.0	-1.6
11	COc1ccc(S(=O)(=O)NNC(=O)c2cccs2)cc1	-0.5	-21.8	1.4	-0.4%	5.5	-6.6
12	Cc1nc2ccccn2c1/C(O)=C1\C(=O)C(=O)N(CCN2CCOCC2)C1c1cccs1 (configuration not stated)	-0.3	-0.9	-0.7	-4.7%[38.3 µM]	1.7	3.3
13	COc1ccccc1C(=O)Nc1sc2c(c1C#N)CCC2	-0.4	4.8	-0.8	7.8%	4.7	3.7
14	CCc1nn(CC(=O)NCCCN(CC)Cc2ccccc2)c(=O)c2cc3sccc3n12	0.1	-34.8	-2.7	.	1.5	0.4
15	CC1CCC(NC(=O)CN2CCCN(Cc3ccc(F)cc3Cl)C2=O)CC1 (configuration not stated)	-0.9	-24.2	-4.8	1.3%	7.4	4.7
16	O=C1CC(c2cc(-c3ccccc3)no2)C1	0.1	-2.7	2.3	0.6%	4.9	-6.8
17	CCN(CC(=O)Nc1ccc(NC(C)=O)cc1)CC(=O)Nc1cccc(Cl)c1	1.0	-8.0	-1.9	-2.1%	-23.9	-1.7
18	CC(=O)Nc1ccccc1C(=O)C(=O)Nc1cccc(C(=O)NC2CC2)c1	1.7	-4.3	1.2	3.0%	1.7	7.6
19	CN(C)S(=O)(=O)c1ccc(Cl)c(NC(=O)CSc2nc3ccccc3c(=O)n2CCCN2CCOCC2)c1	0.1	-51.2	-4.7	1.0%	-6.2	-3.6
20	NCCCC[C@@H](C(=O)N1CCNCC1)n1cc(CN)nn1	-0.5	-3.0	-1.8	-0.2%	5.4	1.9
21	O=C(NC(Cc1c[nH]c2ccccc12)C(=O)N/N=C/c1cccnc1)c1cccs1 (configuration not stated)	1.1	-19.8	-1.0	0.8%	1.5	-19.0
22	CCOC(=O)C1=C(C(F)(F)F)Nc2ncnn2C1c1ccc(OC)c(OC)c1OC (configuration not stated)	0.6	-16.3	-4.4	1.2%	1.5	0.5
23	CCOC(=O)c1c(C)oc2c(F)c(F)c(F)c(F)c2c1=O	2.0	5.7	-2.0	-2.6%	2.2	5.9
24	COCCn1c(SCC(=O)c2ccc(CNC(C)=O)o2)nc2ccccc2c1=O	0.3	5.0	0.5	-1.1%	5.9	1.4
25	Cc1cccc(C)c1-n1c(C)nn(Cc2ccc([N+](=O)[O-])cc2)c1=O	-1.0	2.0	4.0	-0.3%	-3.7	2.8
26	CCOc1ncccc1C(=O)Nc1cc(S(=O)(=O)N(CC)CC)ccc1N1CCOCC1	1.1	-0.5	2.8	2.2%	.	-1.8
27	CC(=O)Nc1ccc(C=CC=Cc2cccc([N+](=O)[O-])c2)cc1	-0.5	-22.8	-3.3	-7.2%	14.1	-11.2
28	COc1ccc(OC)c(N(CCN2C(=O)c3ccccc3C2=O)C(=O)C2CCC(=O)C2C)c1 (configuration not stated)	-0.8	-0.6	-1.8	0.3%	3.6	5.7
29	O=C(COC(=O)CNC(=O)c1ccc(Br)o1)Nc1ccc2c(c1)OCCO2	-1.5	-2.0	-1.7	-1.0%	0.4	0.1
30	CC(=O)c1ccc(NC(=O)CN2C(=O)NC(C)(C3CCCCC3)C2=O)cc1 (configuration not stated)	0.1	-0.3	-0.7	0.0%	6.1	1.4

Grouped by structure: those above containing a nitro group on carbon.
entry	SMILES	TRPML1 ag	D2 potentiator	D2 agonist	PINK1 modulator	CtBP-E1A blk	Six1-Eya2 inh
25	Cc1cccc(C)c1-n1c(C)nn(Cc2ccc([N+](=O)[O-])cc2)c1=O	-1.0	2.0	4.0	-0.3%	-3.7	2.8
27	CC(=O)Nc1ccc(C=CC=Cc2cccc([N+](=O)[O-])c2)cc1	-0.5	-22.8	-3.3	-7.2%	14.1	-11.2

Results in sequence from the entries so far.
D2 agonist for nos. 15 to 23 → -4.8, 2.3, -1.9, 1.2, -4.7, -1.8, -1.0, -4.4, -2.0
D2 potentiator for nos. 15 to 23 → -24.2, -2.7, -8.0, -4.3, -51.2, -3.0, -19.8, -16.3, 5.7

Random excerpt: 2 compounds from above
entry	SMILES	TRPML1 ag	D2 potentiator	D2 agonist	PINK1 modulator	CtBP-E1A blk	Six1-Eya2 inh
15	CC1CCC(NC(=O)CN2CCCN(Cc3ccc(F)cc3Cl)C2=O)CC1 (configuration not stated)	-0.9	-24.2	-4.8	1.3%	7.4	4.7
2	CC(C)CC(=O)NC(C)C(c1cccs1)N1CCOCC1 (configuration not stated)	0.5	-2.8	-2.0	4.8%	.	1.0

The list continues:
entry	SMILES	TRPML1 ag	D2 potentiator	D2 agonist	PINK1 modulator	CtBP-E1A blk	Six1-Eya2 inh
31	O=C1CN(C(=O)NCC(=O)N[C@@H](Cc2ccccc2)C(=O)O)c2ccccc2N1	-0.5	-1.6	0.1	-0.5%	1.2	6.5
32	CCOC(=O)C1CCCN(C(=O)c2ccc(C)c(F)c2)CC1 (configuration not stated)	-0.9	-8.4	-5.1	2.0%	10.7	0.4
33	Cc1ccc(CN(Cc2ccco2)C(=S)NCC(=O)NC2CC2)cc1	0.7	-4.4	-4.9	2.6%	4.1	7.5
34	Cc1cc(NC(=O)CSCC(=O)N(C)Cc2ccc(Cl)cc2Cl)no1	0.3	-29.0	-5.4	1.7%	0.3	17.6
35	Cc1cccc(NC(=O)NNC(=O)COc2ccc(Cl)cc2)c1	0.2	-4.8	-5.6	0.2%	.	2.0
36	Cc1nonc1C1CCCN1Cc1cn[nH]c1-c1ccc2c(c1)OCO2 (configuration not stated)	0.0	5.7	-1.0	-0.5%	3.6	2.6
37	COCCn1c(-c2ccccc2F)n[nH]c1=S	-0.2	-19.4	-1.6	1.5%	2.0	-0.5
38	CN(CCO)C(=O)c1cccc2c1-c1ccccc1C2=O	-0.5	-8.7	1.7	14.4%[38.3 µM]	-10.5	1.1
39	CCOc1cccc(CN2CCN(Cc3ccc(C)o3)C(CCO)C2)c1O (configuration not stated)	0.0	-9.6	0.3	-1.0%	6.2	-3.1
40	CC(C)C(C(=O)NCc1ccco1)N(Cc1ccco1)C(=O)CNS(=O)(=O)c1ccc(F)cc1 (configuration not stated)	-0.5	-1.2	8.9	1.2%	-2.3	4.4
41	Cc1ccc(C)c(S(=O)(=O)N2CCC3(CC2)OCCO3)c1	0.3	3.0	-4.2	1.0%	36.1	16.3
42	Cc1cccc(C)c1NC(=O)CCCSc1nnc(-c2ccc(Cl)cc2)n1-c1ccccc1	0.7	-22.3	-4.5	11.3%	-23.9	2.5
43	CC(C)C(c1nnnn1C1CCCC1)N1CCC(C(N)=O)CC1 (configuration not stated)	-0.5	-10.0	0.6	2.0%	-6.7	2.3
44	CC1CCN(CCCNC(=O)CCc2nnc3n(CCc4ccccc4)c(=O)c4ccccc4n23)CC1	-0.2	-18.5	-2.4	1.5%	-16.5	2.5
45	O=C(Nc1cc(S(=O)(=O)N2CCOCC2)ccc1N1CCCC1)c1ccccc1C(F)(F)F	2.2	-2.5	5.5	-0.2%	3.5	7.4
46	Cn1cc(Br)c(C(=O)NNC(=O)c2ccccc2)n1	-0.3	1.8	-1.1	0.0%	20.9	2.4
47	O=C(Nc1oc2ccccc2c(=O)c1-c1ccc2c(c1)OCO2)c1ccco1	-0.7	-14.4	-2.7	0.8%	-4.1	11.9
48	CCN(CC)P(=O)(Nc1ccc(C)cc1Br)c1ccc(N(C)C)cc1NC(=O)c1ccco1 (configuration not stated)	1.2	-3.7	-3.0	?	-6.9	-12.1
49	Cc1nc(=O)cc(-c2ccccc2)n1-c1ccccc1	-0.3	-10.9	0.1	-2.7%	0.3	20.6
50	Cc1ccc(C(O)c2ncc(-c3ccccc3C)[nH]2)cc1F (configuration not stated)	-0.4	-14.2	-6.4	5.0%	-8.6	-10.9
51	COc1ccc(CN(C(=O)CSc2nnc(-c3c[nH]c4ccccc34)o2)c2ccc(F)cc2)cc1OC	0.9	-14.2	-1.2	-1.3%	-9.6	-9.5
52	CC1CCCCC12NC(=O)N(CC(=O)OCc1c(F)cccc1Cl)C2=O (configuration not stated)	-0.7	-21.5	-0.6	2.4%	5.3	3.0
53	O=C(Nc1ccc(CN2CCOCC2)cc1)c1cccc(F)c1	-0.3	-7.9	-3.9	?	2.9	-1.0
54	COc1ccccc1NC(=O)c1c(NC(=O)c2ccco2)sc2c1CCC2	0.7	3.9	-0.6	.	3.3	15.3
55	Cc1cc(Br)ccc1NC(=O)CCN1C(=O)c2ccncc2C1=O	-0.7	1.3	0.8	-0.5%	0.2	6.2
56	CSc1nc(C)c(C(=O)C[n+]2ccccc2C)cc1C#N	.	-3.6	-7.7	-0.5%	0.9	1.4
57	O=C(COC(=O)c1ccccc1OC(F)F)Nc1ccc(N2CCCCC2)cc1	1.8	-3.5	-1.0	19.7%	0.0	-2.2
58	CCOc1ccccc1C(=O)NC(C(=O)Nc1cccnc1)C(C)C (configuration not stated)	0.2	-1.0	-5.3	-0.2%	-0.3	1.8
59	CCN(CC)S(=O)(=O)c1ccc(Cl)c(NC(=O)COC(=O)c2ccc([N+](=O)[O-])o2)c1	1.3	2.1	7.2	0.2%	-0.1	0.0
60	COCCn1c(Cc2ccccc2)nnc1SCC(=O)NC(C)C	0.6	-1.6	-4.7	-1.0%	3.9	-3.1
61	COc1ccc2c(c1)O/C(=C\c1ccccc1O)C2=O	2.4	3.5	1.7	0.7%	.	1.1
62	CCOC(=O)C1CCN(CC(=O)c2c(C)[nH]c3cc(C)ccc23)CC1	-0.1	-20.3	-0.7	-1.0%	5.0	-26.3
63	NS(=O)(=O)c1ccc(CCNC(=O)C2CC(=O)N(Cc3ccccc3Cl)C2)cc1 (configuration not stated)	-0.3	-1.3	0.2	-2.2%	-2.5	4.0

Screening results: PubChem BioAssay, National Center for Advancing Translational Sciences (NCATS)
